PINK1 modulator: changes PINK1 expression; PINK1 immunofluorescence, high-content cytometry, 24 h; Potency, µM (doses to about 76.6 µM), for the others: at the highest dose activation (PINK1 increase), actives largely listed as activators; 410,000 compounds, 0.2% hits; active = well fitted activation curve with a large enough effect; inconclusive = small, poorly fitted or top-dose-only effect; inactive = flat fitted curve, though single readings scatter; cell line not stated here;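 note: potency is the fitted concentration of half-maximal effect; % of control where 0% means no effect; nearly all actives have a fitted effect of over 65% in size; a mitochondrial uncoupler was the plate control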
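Cells are seeded, rested 12 hours, then given compound at five concentrations or DMSO for 24 hours. After fixation, blocking and antibody staining, PINK1 amount and mitochondrial localization are scored; CCCP serves as control.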
Six1-Eya2 blk: inhibitors of human Six1/Eya2 interaction. Q15475+O00167. AlphaScreen GST-Six1/His-Eya2 binding, biochemical; stronger effect = lower value; control for the full effect not named in the record. activity change, % (no concentration beside the values). 360,000 compounds, 0.56% hits. AID 651725; in the data active = activity change below about -65%; inconclusive = about -30% to -65%; inactive = above about -30%; note: % is set by controls: 0 for no effect and ±100 for the full control effect
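Homogeneous AlphaScreen proximity assay pairing GST-Six1 with His-tagged Eya2 (added as 5X mix: 250 nM and 500 nM) in 50 mM Tris pH 8.0, 300 mM NaCl, 1 mM TCEP. Glutathione donor and nickel acceptor beads; 1 h, 37 °C, dark.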
Sfp PPTase inh: inhibitors of Bacillus subtilis Sfp phosphopantetheinyl transferase; Q9F4F7; Biochemical Sfp PPTase activity, qHTS; Potency, µM, without a hit: max response, negative = inhibition, actives largely listed as inhibitors; 310,000 compounds, 3.5% hits; AID 1490; active = well fitted inhibition curve with a large enough effect; inconclusive = small, poorly fitted or top-dose-only effect, or another doubt; inactive = no such curve, though single readings can be large or run the other way;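 note: the enzyme is Sfp with the accession as filed and its product quenches rhodamine fluorescence; potency is the fitted concentration of half-maximal effect; 0% = enzyme reaction without inhibitor and -100% = no enzyme wells; top concentration of the series not given in the record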
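Buffer: 50 mM Hepes-Na pH 7.6, 10 mM MgCl2, 0.01% Nonidet P-40, 0.01% BSA. Enzyme 15 nM, pre-exposed to compound 15 min; substrates then added and fluorescence change tracked over 30 min.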
CtBP-E1A blk: blocks the CtBP interaction with E1A | AlphaScreen GST-E1A/His-CtBP binding, 1536-well; stronger effect = lower value; control for the full effect not named in the record | activity change, % (test concentration not listed) | 340,000 compounds, 0.49% hits | AID 651724; in the data active means activity change below about -65%; inconclusive means about -30% to -65%; inactive means above about -30%; note: % is set by controls: 0 for no effect and ±100 for the full control effect
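In 5 uL wells, 23 nL compound meets equimolar GST-E1A and His-CtBP (5X stock 125 nM each) for 2 h, 37 °C. Beads (5X, 50 ug/mL) then 1 h, 37 °C, dark.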
D2 agonist: human D2 receptor agonism in beta-arrestin assay | P14416 | DiscoveRx PathHunter D2 beta-arrestin, luminescence, 90 min; 100% = 57 uM dopamine signal | activation, % (no concentration beside the values) | 360,000 compounds, 0.084% hits | AID 624465; in the data active = activation above about 40%; inconclusive = about 15% to 40%; inactive = below about 15%; note: compound concentration not given in the record; the text of the record calls up to 30% inactive
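DiscoveRx PathHunter D2 beta-arrestin cells (2,100/well) attached overnight, then compound-stimulated 90 min at 37 C in HBSS/10 mM HEPES/0.1% Tween-20 buffer; beta-galactosidase complementation read by luminescence after 1 h at ambient temperature. Dopamine 57 uM final (EC100) as control.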
D2 PAM: positive allosteric modulators of human D2 dopamine receptor. potentiation, % (concentration not given with the values). DiscoveRx D2 beta-arrestin cells, luminescence, 90 min; 100% = 57 uM dopamine signal. 360,000 compounds, 0.23% hits. AID 624464. P14416; active = potentiation of 50% or more; inconclusive = 30% to 50%; inactive = 30% or less;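 note: tested on top of an EC20 dose of dopamine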
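D2 cells co-treated with compound plus 50 nM dopamine (EC20) for 90 min at 37 deg C to detect potentiation. Beta-arrestin recruitment was read as enzyme-fragment luminescence after 1 h at ambient temperature. Full response was set by 57 uM dopamine.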
TRPV1 potentiator: enhances activation of the human vanilloid receptor TRPV1; Q8NER1; TRPV1-expressing cells, Fluo-8 calcium influx, capsaicin EC20 potentiation; host cell line not named in the record; control for the full effect not named in the record; potentiation, % at 8.33 µM; 320,000 compounds, 0.02% hits; AID 540277; active means potentiation above 80%; inconclusive means 30% to 80%; inactive means below 30%; note: 0% is about no effect
Target sequence (Q8NER1 whole entry, looked up): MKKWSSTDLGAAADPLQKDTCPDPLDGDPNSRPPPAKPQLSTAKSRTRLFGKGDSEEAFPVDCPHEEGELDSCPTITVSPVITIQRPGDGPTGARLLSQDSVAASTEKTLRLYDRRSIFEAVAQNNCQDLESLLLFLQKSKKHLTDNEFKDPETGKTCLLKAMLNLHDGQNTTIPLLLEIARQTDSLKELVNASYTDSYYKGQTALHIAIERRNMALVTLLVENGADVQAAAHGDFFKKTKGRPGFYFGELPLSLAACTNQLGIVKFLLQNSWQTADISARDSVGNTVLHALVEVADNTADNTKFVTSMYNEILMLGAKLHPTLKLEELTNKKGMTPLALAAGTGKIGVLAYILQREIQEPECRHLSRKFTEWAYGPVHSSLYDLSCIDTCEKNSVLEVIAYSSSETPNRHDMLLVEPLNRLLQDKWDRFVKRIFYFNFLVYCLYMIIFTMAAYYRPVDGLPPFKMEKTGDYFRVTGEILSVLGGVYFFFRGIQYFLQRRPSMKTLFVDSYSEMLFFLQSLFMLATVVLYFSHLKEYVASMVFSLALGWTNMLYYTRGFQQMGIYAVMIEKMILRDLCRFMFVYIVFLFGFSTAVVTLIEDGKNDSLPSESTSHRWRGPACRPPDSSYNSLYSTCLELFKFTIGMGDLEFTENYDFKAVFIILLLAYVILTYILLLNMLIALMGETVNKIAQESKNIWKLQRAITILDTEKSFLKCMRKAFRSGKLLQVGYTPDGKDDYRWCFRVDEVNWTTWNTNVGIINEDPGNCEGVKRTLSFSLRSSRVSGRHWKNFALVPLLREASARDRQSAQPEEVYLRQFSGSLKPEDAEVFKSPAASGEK
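Fluo-8 calcium influx in TRPV1-expressing cells, kinetic read (ex 480/em 520 nm). Compound added and read 3 min for agonist activity, followed by capsaicin at EC20 final and 2 min further read for enhancement.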
Active calls of the source: *; ? = inconclusive; · = no result given; & = joins results of further samples; [ ] = another dose, or the depositor's remark.

1. CC(C)CNS(=O)(=O)c1ccc(CCC(=O)NCCC2=CCCCC2)cc1
2. CC1(C(=O)NC(=S)NNC(=O)c2ccncc2)CCCCC1
3. Cc1ccc(Sc2nnc(-c3ccccc3)cc2C#N)cc1
4. OCC[C@H]1C[C@H](O)[C@@H](O)[C@]2(OCc3ccccc32)O1
5. Cc1cccc(CS(=O)(=O)Cc2ccc(C(=O)NC3CCCC3)o2)c1
6. Cc1cccc(C(=O)OCC(=O)NCc2cccs2)c1
assay / entry,1,2,3,4,5,6
PINK1 modulator,2.8%,2.7%,2.4%,0.5%,0.2%,3.0%
Six1-Eya2 blk,7,-5,3,3,0,7
Sfp PPTase inh,25%,-24%,17%,·,28%,17%
CtBP-E1A blk,0,0,3,2,12,-12
D2 agonist,-7.7,-14,-12,1.3,0.1,-0.4
D2 PAM,-5,-28,2,7,-4,4
TRPV1 potentiator,-3,-16,-14,-4,-1,-21

7. Cc1ccc(C(=O)NNC(=O)c2ccc(NS(=O)(=O)c3cccs3)cc2)o1
8. Cc1cccc(NC(=S)N(Cc2cccc(Br)c2)CC2CCC(C(=O)O)CC2)c1 (stereo unspecified)
9. c1ccc(-c2nc(N3CCOCC3)cc(N3CCOCC3)n2)cc1
10. CCOC(=O)C1=CCC(c2ccccc2C)N(S(=O)(=O)c2ccc(C)cc2)C1 (stereo unspecified)
11. CC1CC2(CCCCC2)Nc2ccc3ccccc3c21 (stereo unspecified)
12. Cc1cccc(CSc2nn3c(=O)c(C)nnc3s2)c1
assay / entry,7,8,9,10,11,12
PINK1 modulator,1.0%,0.9%,-0.5%,3.1%,0.3%,3.5%
Six1-Eya2 blk,-2,5,-6,-7,2,0
Sfp PPTase inh,·,-28%,7%,·,-24%,5%
CtBP-E1A blk,3,·,0,1,4,-1
D2 agonist,-5.7,-0.2,1.0,-4.8,-4.8,0.9
D2 PAM,-6,-4,-9,-1,-20,17
TRPV1 potentiator,3,3,0,·,-1,-2

13. CCC(CC)C1C(C#N)=C(N)Oc2cc(C)oc(=O)c21 (stereo unspecified)
14. O=C(NCc1cccc(C(F)(F)F)c1)C1CC(c2ccccc2C(F)(F)F)=NO1 (stereo unspecified)
15. Cc1ccc(CNC(=O)Cc2cccs2)cc1
16. CCOC(=O)N1CCN(C(=O)/C=C/c2ccc(OC)c(OC)c2)CC1
17. Cc1ccc(-c2[nH]nc3c2C(c2ccoc2)C(C#N)=C(N)O3)cc1C (stereo unspecified)
18. Cc1cccc(NC(=O)c2cccnc2)c1C
assay / entry,13,14,15,16,17,18
PINK1 modulator,0.7%[38.3 µM],1.7%,-2.2%,-1.4%,-3.3%[38.3 µM],-0.6%
Six1-Eya2 blk,0,1,0,11,-8,13
Sfp PPTase inh,-1%,12%,5%,19%,6%,19%
CtBP-E1A blk,7,-2,2,0,15,-9
D2 agonist,-0.1,2.0,-5.4,2.5,-3.6,-1.3
D2 PAM,-25,-7,-10,-2,-19,5
TRPV1 potentiator,-2,-25,-13,-4,-10,-11

19. CCn1nnc(NC(=O)C(c2ccccc2)c2ccccc2)n1
20. COc1ccc(/C=C/c2cccc[n+]2C)c(O)c1
21. CCOC(=O)CSc1cc(=O)n(CC)c2ccccc12
22. Cc1ccc(C(=O)NC(CCc2ccccc2)C(=O)O)cc1 (stereo unspecified)
23. O=C(Nc1ccc(N2CCN(c3ccc(C(F)(F)F)cn3)CC2)nc1)c1cccs1
24. O=C(Nc1cccc(Cl)c1)N1N=CCC1c1ccccc1 (stereo unspecified)
assay / entry,19,20,21,22,23,24
PINK1 modulator,-1.3%,-0.9%,0.5%,0.2%,9.9%,0.2%
Six1-Eya2 blk,-13,-1,-2,7,6,4
Sfp PPTase inh,8%,-1%,13%,·,11%,-4%
CtBP-E1A blk,-11,·,-9,0,6,6
D2 agonist,-1.2,-5.0,-0.4,-2.5,2.3,-2.3
D2 PAM,1,-21,-10,·,-8,-8
TRPV1 potentiator,4,2,-1,·,-5,1

Entries of single compounds, quoted from the list. Order of screens: PINK1 modulator	Six1-Eya2 blk	Sfp PPTase inh	CtBP-E1A blk	D2 agonist	D2 PAM	TRPV1 potentiator
`Cc1ccc(Sc2nnc(-c3ccccc3)cc2C#N)cc1` in the list: 2.4%	3	17%	3	-12	2	-14
`CCC(CC)C1C(C#N)=C(N)Oc2cc(C)oc(=O)c21` (stereo unspecified) in the list: 0.7%[38.3 µM]	0	-1%	7	-0.1	-25	-2
`Cc1cccc(NC(=S)N(Cc2cccc(Br)c2)CC2CCC(C(=O)O)CC2)c1` (stereo unspecified) in the list: 0.9%	5	-28%	·	-0.2	-4	3

Returning to the listing, repeating the four entries before the break.
21. CCOC(=O)CSc1cc(=O)n(CC)c2ccccc12
22. Cc1ccc(C(=O)NC(CCc2ccccc2)C(=O)O)cc1 (stereo unspecified)
23. O=C(Nc1ccc(N2CCN(c3ccc(C(F)(F)F)cn3)CC2)nc1)c1cccs1
24. O=C(Nc1cccc(Cl)c1)N1N=CCC1c1ccccc1 (stereo unspecified)
25. CCCC(=O)Nc1nn(C)c2nc3ccc(C)cc3cc12
26. Cn1ncc(C#N)c1NC(=O)C1CC(c2c(F)cccc2Cl)=NO1 (stereo unspecified)
27. CCCCn1c(=O)[nH]c(=O)c2c1nc(-c1ccc3ccccc3c1)n2CC
28. COC(=O)c1c(NC(=O)C2Cc3ccccc3C(=O)O2)sc2c1CCCC2 (stereo unspecified)
29. O=C1Nc2ccccc2/C1=C/c1ccccc1Cl
30. CCOC(=O)N1CCN(c2cc(C)c([N+](=O)[O-])cc2F)CC1
assay / entry,21,22,23,24,25,26,27,28,29,30
PINK1 modulator,0.5%,0.2%,9.9%,0.2%,-0.7%,4.4%[38.3 µM],9.1%,14%,9.8%,0.1%
Six1-Eya2 blk,-2,7,6,4,1,1,2,5,-3,-2
Sfp PPTase inh,13%,·,11%,-4%,1%,-7%,9%,-6%,-15%,14%
CtBP-E1A blk,-9,0,6,6,7,9,-19,0,2,-7
D2 agonist,-0.4,-2.5,2.3,-2.3,0.1,1.3,1.3,-4.3,-1.6,-1.0
D2 PAM,-10,·,-8,-8,2,-1,0,-2,-11,-2
TRPV1 potentiator,-1,·,-5,1,-2,-12,-6,-2,10,-8

31. CCC(CC)C(=O)Nc1nnc(S(=O)(=O)N2c3ccccc3CC2C)s1 (stereo unspecified)
32. COc1cc(OC)c2ccc(=O)oc2c1C(CC(=O)N1CCOCC1)c1ccc(N(C)C)cc1 (stereo unspecified)
33. O=C(O)Cc1sc(Nc2cccc3ccccc23)nc1-c1ccc(F)cc1
34. CN(Cc1ccccc1)C(=O)CSc1nc2ccccc2c(=O)n1Cc1ccco1
35. CCOC(=O)C1=C(C)NC(=O)NC1c1ccccc1Cl (stereo unspecified)
36. COc1ccccc1/C=C/CN1CCOCC1
assay / entry,31,32,33,34,35,36
PINK1 modulator,14%&7.4%,0.8%,3.1%,-0.3%[38.3 µM],3.4%,9.5%[38.3 µM]
Six1-Eya2 blk,-3,0,-3,-17,1,0
Sfp PPTase inh,8%,1%,1%,-10%,19%,7%
CtBP-E1A blk,3,1,1,-7,3,6
D2 agonist,0.0,0.6,0.1,-2.7,-1.0,-2.8
D2 PAM,1,-6,-2,-8,-2,-12
TRPV1 potentiator,-19,-12,11,-19,5,6

37. COc1cccc(NC(=O)C2CCN(c3cnccn3)CC2)c1
38. COc1ccc(S(=O)(=O)N2CCCC2C(=O)Nc2ccc(C)cc2)cc1 (stereo unspecified)
39. c1cncc(-c2nnc(-c3cccs3)o2)c1
40. Cn1c(=O)c2c(nc(N3CCc4ccccc4C3)n2Cc2ccc(Br)cc2)n(C)c1=O
41. CC(=O)c1cc(C#N)c(SCC(=O)Nc2nccs2)nc1C
42. O=S1(=O)C[C@@H](O)[C@@H](Nc2ccc(Cl)cc2)C1
assay / entry,37,38,39,40,41,42
PINK1 modulator,0.2%,-1.4%,0.5%,18%,5.1%,0.1%
Six1-Eya2 blk,3,1,-1,-1,-26,-1
Sfp PPTase inh,-12%,11%,15%,24%,-20%,10%
CtBP-E1A blk,3,-18,-2,-6,·,1
D2 agonist,-2.7,-3.3,3.0,-2.3,-2.8,-2.1
D2 PAM,-9,-10,15,-5,-3,-5
TRPV1 potentiator,7,2,-23,18,10,-2

43. COc1ccc(CCC2CCNCC2)cc1
44. CC(C)=NOC(=O)c1c(C)noc1-c1snnc1C
45. COc1ccccc1N(CC(=O)NCCSc1ccccc1)S(C)(=O)=O
46. CC1CCN(C(=O)NC(=O)c2ccc(Cl)cc2)CC1
47. O=C(NCCS(=O)(=O)N1CCN(c2ccccc2F)CC1)C1CC(=O)N(c2ccccc2)C1 (stereo unspecified)
48. COc1ccccc1NC(=O)N1CCOCC1
49. COc1ccc(C=O)cc1Cn1cnc2c(cnn2C)c1=O
50. Cc1ccc(S(=O)(=O)NC(CC(=O)n2nc(C)cc2C)c2ccccc2)cc1 (stereo unspecified)
51. COc1cccc(C(=O)SC2=NCCS2)c1
assay / entry,43,44,45,46,47,48,49,50,51
PINK1 modulator,0.4%,1.8%,0.4%[38.3 µM],0.0%,2.4%&-0.1%,1.1%,8.9%,0.3%,·
Six1-Eya2 blk,7,7,7,2,3,8,1,6,-1
Sfp PPTase inh,2%,-6%,16%,8%,12%,5%,7%,9%,-4%
CtBP-E1A blk,·,0,0,1,·,-8,1,-2,4
D2 agonist,-5.9,?,-0.3,-3.9,4.7,-1.1,-0.9,-0.2,-1.1
D2 PAM,-10,18,-15,-19,0,-2,-4,-9,-6
TRPV1 potentiator,-4,-7,6,2,?,-2,30,-3,0
